Source: PubChem
MLL AF4-AF9 inh: inhibitors of AF4 peptide binding to AF9, primary screen, biochemical, AlphaScreen, biotin-AF4 peptide, FLAG-AF9, single point | inhibition, % at 10 µM | hit rate 0.47% among 350,000 | AID 651704, 2012;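 active means every replicate reaching a set inhibition limit, whatever the replicate mean, cut at about 25% in these data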;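 further: 0% = plate neutral control median and 100% = total signal loss; the record names both 10 and 1 µM as test concentration; the first replicate is given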
Target sequence (P42568 whole entry, looked up): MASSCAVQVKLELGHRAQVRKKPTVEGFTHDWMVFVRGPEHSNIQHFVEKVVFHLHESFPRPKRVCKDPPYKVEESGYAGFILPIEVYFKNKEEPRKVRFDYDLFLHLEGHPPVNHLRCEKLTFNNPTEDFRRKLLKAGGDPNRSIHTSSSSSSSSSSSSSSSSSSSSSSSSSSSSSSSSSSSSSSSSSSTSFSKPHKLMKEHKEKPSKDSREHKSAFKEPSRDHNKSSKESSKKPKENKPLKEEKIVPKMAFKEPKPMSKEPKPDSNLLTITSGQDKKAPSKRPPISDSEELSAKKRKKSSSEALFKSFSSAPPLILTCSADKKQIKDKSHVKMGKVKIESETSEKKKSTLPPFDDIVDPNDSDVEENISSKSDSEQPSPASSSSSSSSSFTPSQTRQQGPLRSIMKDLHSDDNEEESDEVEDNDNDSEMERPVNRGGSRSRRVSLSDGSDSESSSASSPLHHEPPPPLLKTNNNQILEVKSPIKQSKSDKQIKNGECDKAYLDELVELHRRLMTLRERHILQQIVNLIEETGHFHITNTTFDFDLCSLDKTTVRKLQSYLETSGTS
Numbers without * were called inactive; & = joins results of further samples.

SMILES	MLL AF4-AF9 inh
COc1ccc2c3c([nH]c2c1)[C@H](CO)N(C(=O)Nc1ccc(F)cc1)CC31CN(S(=O)(=O)c2ccc(C)cc2)C1	-7.1
COCC#Cc1ccc([C@H]2[C@@H](CO)N3C(=O)CN(C(=O)Nc4ccc(F)cc4)C[C@H]23)cc1	-4.2
C/C=C/c1ccc([C@H]2[C@@H](CO)N(C(C)=O)[C@@H]2CN(CC)C(=O)CC2CC2)cc1	-4.1
COc1ccc(NC(=O)N2CC(=O)N3[C@H](CO)[C@@H](c4ccc(-c5ccc(C)cc5)cc4)[C@@H]3C2)cc1	2.1
CC(=O)NC[C@@H]1[C@@H](c2ccc(C3=CCCCC3)cc2)[C@@H](CO)N1C(=O)C1CC1	0.8
CCCNC(=O)N1[C@H](CO)[C@H](c2ccccc2)[C@H]1CNC(=O)C1CCCCC1	-3.0
N#C[C@H]1[C@@H](c2ccccc2C2=CCCCC2)[C@H](CO)N1C(=O)Cc1ccncc1	-2.2
CO[C@@H]1CN(C)C(=O)c2cc(NC(=O)C3CCC3)ccc2OC[C@@H](C)N(C)C[C@@H]1C	-1.5
CC(C)NC(=O)N1CC2(C1)[C@@H](c1ccccc1)[C@H](CO)N2C(=O)c1ccccn1	-0.9
CC=Cc1ccc2n(c1=O)C[C@@H]1[C@@H](CO)[C@H](C(=O)NCCC)[C@H]2N1C(=O)C1CCC1 (mixture of isomers)	-12.6
Cc1noc(C)c1NC(=O)N(C)C[C@H]1OCCCC[C@@H](C)Oc2ccc(NC(=O)c3ccccc3)cc2C(=O)N([C@@H](C)CO)C[C@H]1C	0.3
O=C(C[C@H]1C[C@H]2c3cc(NS(=O)(=O)c4ccc(F)cc4)ccc3O[C@H]2[C@@H](CO)O1)N1CCOCC1	-0.2
O=C(C1CCOCC1)N1CC(=O)N2[C@@H](CO)[C@H](c3ccc(C#CC4CCCC4)cc3)[C@@H]2C1	4.4
CCC(=O)N1CC2(C1)[C@@H](c1ccccc1)[C@@H](CO)N2CC1CCCC1	-7.6
O=C(Cc1ccccc1)N1CC(=O)N2[C@H](C1)[C@@H](c1ccc(-c3cccc(F)c3)cc1)[C@@H]2CO	-8.3
COc1cccc(-c2ccc(C3[C@H]4CNC[C@@H]3N4C(=O)Nc3cc(F)ccc3F)cc2)c1 (some centres not stated)	2.5&2.8
O=C(C1CCCC1)N1CC2(C1)[C@H](c1ccccc1)[C@H](CO)N2Cc1nccs1	-0.4
CCCNC(=O)[C@H]1[C@H](CO)[C@H]2Cn3c(ccc(-c4ccccc4OC)c3=O)[C@H]2N1S(C)(=O)=O	-2.3
CS(=O)(=O)N1[C@@H]2c3ccc(-c4cccc(F)c4)c(=O)n3C[C@@H]2[C@@H](CO)[C@@H]1C(=O)NC1CCC1	-6.2
COc1ccc(-c2cccc(-c3nc(C(=O)O)cc4c3[C@@H](CCO)N([S@](=O)C(C)(C)C)C4)c2)cc1	-5.7
COc1cccc(CN2[C@@H]3CNC[C@H]2[C@H]3c2ccc(-c3ccccc3OC)cc2)c1	2.1
CN(C)C(=O)c1ccc(-c2ccc3c(c2)[C@H]2[C@H](CCN2C(=O)C2CCCC2)[C@@H](CO)N3C)cc1	6.0
CN1C(=O)c2cc(NC(=O)c3cccs3)ccc2OC[C@H]2O[C@H](CC(=O)NCC(F)(F)F)CC[C@@H]21	-1.2
C[C@@H]1CCCCO[C@H](CN(C)S(=O)(=O)c2ccc(F)cc2)[C@H](C)CN([C@@H](C)CO)C(=O)c2cc(NC(=O)Nc3ccc(C(F)(F)F)cc3)ccc2O1	-2.5

Fetched by compound from the list above:
SMILES	MLL AF4-AF9 inh
O=C(C1CCCC1)N1CC2(C1)[C@H](c1ccccc1)[C@H](CO)N2Cc1nccs1	-0.4
O=C(C[C@H]1C[C@H]2c3cc(NS(=O)(=O)c4ccc(F)cc4)ccc3O[C@H]2[C@@H](CO)O1)N1CCOCC1	-0.2
COc1ccc(-c2cccc(-c3nc(C(=O)O)cc4c3[C@@H](CCO)N([S@](=O)C(C)(C)C)C4)c2)cc1	-5.7
CCCNC(=O)N1[C@H](CO)[C@H](c2ccccc2)[C@H]1CNC(=O)C1CCCCC1	-3.0

Following part.
SMILES	MLL AF4-AF9 inh
Cc1ccc(S(=O)(=O)NC[C@H]2CC[C@@H]3[C@@H](CN3C(=O)CN(C)C)O2)cc1	-3.2
C[C@@H]1CN([C@@H](C)CO)C(=O)c2ccccc2-c2ccccc2CO[C@@H]1CN(C)Cc1cccc2c1OCCCO2	-0.1
CCCC#Cc1ccc([C@H]2[C@@H](CO)N3C(=O)CN(C(=O)c4ccc(F)cc4)C[C@H]23)cc1	0.6
CN1c2ccc(C#Cc3cccnc3)cc2[C@@H]2[C@@H](CCN2C(=O)C2CCC2)[C@@H]1CO	13.7
O=C(C[C@H]1C=C[C@H](NS(=O)(=O)c2ccccc2)[C@@H](CO)O1)N1CCN(c2ccccc2)CC1	-3.2
O=C(Cc1ccncc1)N1CC[C@H]2[C@H](CO)Nc3ccc(-c4ccccc4)cc3[C@H]21	9.5
O=C(C1CCCC1)N1[C@H](CO)[C@H](c2ccccc2)C12CN(CCC(F)(F)F)C2	3.9
O=C(Cc1cccnc1)N1CC(=O)N2[C@H](CO)[C@@H](c3ccc(C#CC4CC4)cc3)[C@@H]2C1	-0.6
O=C(NC1CCCC1)N1CC(=O)N2[C@H](CO)[C@H](c3ccc(-c4cccnc4)cc3)[C@@H]2C1	-1.1
CC(=O)N[C@H]1C[C@@H]2O[C@@H](CO)CC[C@@H]2O[C@@H]1CCc1ccc(C#CC2(O)CCCC2)cc1	-1.2
CCNC(=O)[C@H]1[C@H](CO)[C@H]2Cn3c(ccc(C4=CCCC4)c3=O)[C@@H]1N2S(=O)(=O)c1cn(C)cn1	-0.6
CC(C)c1cn(CC[C@H]2CC[C@H](NC(=O)C3CCOCC3)[C@@H](CO)O2)nn1	-0.9
Cc1ccc(S(=O)(=O)N(C)C[C@H]2OCCCC[C@H](C)Oc3ccc(NC(=O)Cc4ccccc4)cc3C(=O)N([C@H](C)CO)C[C@H]2C)cc1	-1.1
N#C[C@@H]1[C@@H](c2ccc(C3=CCCC3)cc2)[C@@H](CO)N1C(=O)NC1CCCCC1	4.9
CN(C)C(=O)c1ccc(-c2ccc(C3[C@H]4CNC[C@@H]3N4C(=O)Nc3ccccc3F)cc2)cc1 (some centres not stated)	8.8
CN(C)C(=O)[C@H]1[C@H](CO)[C@H]2Cn3c(cccc3=O)[C@H]2N1CC1CCCC1	-1.5
COc1ccc(-c2ccc([C@H]3[C@@H](CO)N4C(=O)CNC[C@H]34)cc2)cc1	-2.8
O=C(NC[C@H]1CC[C@H]2[C@H](CN2Cc2ccccc2F)O1)C1CC1	-1.5
CC(C)NC(=O)N1CC2(C1)[C@H](c1ccccc1)[C@H](CO)N2C(=O)C1CCC1	-1.7
COc1ccccc1NC(=O)N1CC(=O)N2[C@H](CO)[C@@H](c3ccc(-c4ccc(F)cc4)cc3)[C@H]2C1	1.8
C[C@@H]1CCCCO[C@H](CN(C)C(=O)c2ccccc2)[C@@H](C)CN([C@@H](C)CO)C(=O)c2cc(NS(=O)(=O)c3ccccc3)ccc2O1	-0.2
CNC[C@@H]1Oc2ccc(NC(=O)CCCN(C)C)cc2CC(=O)N([C@H](C)CO)C[C@H]1C	0.3
O=C(C[C@H]1CC[C@@H](NC(=O)Cc2cccnc2)[C@H](CO)O1)Nc1ccccc1	-1.4
O=C(C1CC1)N1CC(=O)N2[C@H](C1)[C@H](c1ccc(-c3ccccc3F)cc1)[C@@H]2CO	-0.3

The closing 4 records of the section above come first, to join the parts:
SMILES	MLL AF4-AF9 inh
C[C@@H]1CCCCO[C@H](CN(C)C(=O)c2ccccc2)[C@@H](C)CN([C@@H](C)CO)C(=O)c2cc(NS(=O)(=O)c3ccccc3)ccc2O1	-0.2
CNC[C@@H]1Oc2ccc(NC(=O)CCCN(C)C)cc2CC(=O)N([C@H](C)CO)C[C@H]1C	0.3
O=C(C[C@H]1CC[C@@H](NC(=O)Cc2cccnc2)[C@H](CO)O1)Nc1ccccc1	-1.4
O=C(C1CC1)N1CC(=O)N2[C@H](C1)[C@H](c1ccc(-c3ccccc3F)cc1)[C@@H]2CO	-0.3
Cc1noc(C)c1NC(=O)N(C)C[C@H]1OCCCC[C@@H](C)Oc2ccc(NS(=O)(=O)c3ccccc3)cc2C(=O)N([C@@H](C)CO)C[C@@H]1C	-2.7
O=C(Nc1ccccc1)N1CC(=O)N2[C@H](CO)[C@@H](c3ccc(C#Cc4cccnc4)cc3)[C@@H]2C1	-1.5
CO[C@H]1CN(C)C(=O)c2ccc(NC(=O)c3cnccn3)cc2OC[C@H](C)N(C)C[C@@H]1C	-2.2
N#C[C@H]1[C@H](c2ccccc2C2=CCCC2)[C@H](CO)N1C(=O)NC1CCCCC1	-11.1
COc1ccc(-c2ccc([C@H]3[C@@H](CO)N4C(=O)CN(C(=O)c5cccnc5)C[C@@H]34)cc2)cc1	-2.4
C[C@@H]1CCCCO[C@@H](CN(C)C(=O)CCCN(C)C)[C@H](C)CN([C@@H](C)CO)C(=O)c2cc(NC(=O)Nc3ccc(F)cc3)ccc2O1	5.6
CN1C(=O)c2cc(NC(=O)C3CCOCC3)ccc2OC[C@@H]2O[C@@H](CC(=O)NCc3ccccc3F)CC[C@@H]21	0.3
COCC(=O)N1C[C@@H](C)[C@@H](OC)CN(C)C(=O)c2ccc(NC(=O)Nc3ccccc3)cc2OC[C@@H]1C	1.2
O=C(C1CCCC1)N1CC2(C1)[C@H](c1ccccc1)[C@H](CO)N2C(=O)c1cccnc1	-5.6
O=C(c1ccc(F)cc1)N1CC(=O)N2[C@H](C1)[C@@H](c1ccc(C#CC3CCCCC3)cc1)[C@@H]2CO	-1.6
C[C@H](CO)N1C[C@H](C)[C@@H](CN(C)C(=O)Nc2ccccc2)OCCCC[C@H](C)Oc2ccc(NC(=O)NC3CCCCC3)cc2C1=O	-2.3
O=C(c1ccccc1)N1CC(=O)N2[C@H](C1)[C@@H](c1ccc(C3=CCCC3)cc1)[C@@H]2CO	-2.0
COc1ccc(CN(C)C[C@H]2Oc3ccc(NC(=O)Nc4ccc5c(c4)OCO5)cc3CC(=O)N([C@H](C)CO)C[C@H]2C)cc1	7.3
COc1ccccc1NC(=O)N[C@H]1CC[C@@H](CCNS(=O)(=O)c2ccccc2)O[C@@H]1CO	-1.9
O=C(Nc1ccc2c(c1)OCO2)N1C[C@@H]2N[C@H](C1)C2c1ccc(-c2ccccc2)cc1 (some centres not stated)	30.6*
CCC(=O)N1CC(=O)N2[C@H](C1)[C@H](c1ccc(-c3cccc(C(=O)N(C)C)c3)cc1)[C@@H]2CO	-0.5
COc1ccccc1NC(=O)N[C@@H]1CC[C@@H](CCNS(=O)(=O)c2ccc(C)cc2)O[C@H]1CO	-2.9
O=C(C1CCC1)N1CC(=O)N2[C@H](CO)[C@H](c3ccc(C#Cc4cccc(F)c4)cc3)[C@@H]2C1	-2.9
O=C(c1cccnc1)N1C[C@@H]2N[C@H](C1)C2c1ccc(-c2cccnc2)cc1 (some centres not stated)	-2.8
CN(C)C(=O)c1ccc(-c2ccc(C3[C@@H]4CN(Cc5cccnc5)C[C@H]3N4)cc2)cc1 (some centres not stated)	3.7&2.6
COc1ccc(CN2CC3(CN(C(=O)c4ccccc4)C3)c3c([nH]c4cc(OC)ccc34)[C@@H]2CO)cc1	-3.8
COc1ccc(-c2ccc3n(c2=O)C[C@H]2N[C@@H]3[C@@H](C(=O)N3CCCCC3)[C@@H]2CO)cc1	-1.8
CN1C(=O)c2cc(NC(=O)NC3CCCC3)ccc2OC[C@H]2O[C@@H](CC(=O)NCC3CC3)CC[C@@H]21	-2.6
Cc1ccc(S(=O)(=O)N(C)C[C@H]2OCCCC[C@H](C)Oc3ccc(NC(=O)NC(C)C)cc3C(=O)N([C@H](C)CO)C[C@H]2C)cc1	-1.6
O=C1CN(S(=O)(=O)c2cccc(F)c2)C[C@H]2[C@@H](c3ccc(-c4ccc(F)cc4)cc3)[C@H](CO)N12	-2.0
CCC(=O)N1CC(=O)N2[C@H](CO)[C@@H](c3ccc(-c4ccc(C#N)cc4)cc3)[C@H]2C1	4.1
CCC(=O)N1[C@H](CO)[C@H](c2ccccc2)[C@@H]1CN(CC1CC1)S(C)(=O)=O	-1.8
C[C@@H]1CN([C@H](C)CO)C(=O)Cc2cc(NC(=O)CCCN(C)C)ccc2O[C@H]1CN(C)CC1CCCCC1	8.6
C[C@@H]1CN([C@@H](C)CO)C(=O)c2cc(NC(=O)CCCN(C)C)ccc2O[C@@H](C)CCCCO[C@@H]1CN(C)C(=O)Nc1ccccc1	-1.8
O=C(C[C@@H]1CC[C@H]2[C@@H](COC[C@@H](O)CN2C(=O)C2CC2)O1)NCc1ccncc1	-3.4
C/C=C/c1ccc([C@@H]2[C@H](CO)N3C(=O)CN(Cc4ccc(C)cc4)C[C@@H]23)cc1	6.4
CN1C(=O)c2cc(NC(=O)c3cccs3)ccc2OC[C@@H]2O[C@@H](CC(=O)NCC(F)(F)F)CC[C@H]21	0.0
C[C@H](CO)N1C[C@H](C)[C@H](CN(C)C(=O)c2ccccc2)OCCCC[C@H](C)Oc2ccc(NS(=O)(=O)c3cn(C)cn3)cc2C1=O	-2.2
O=C(c1cccnc1)N1CC(=O)N2[C@@H](CO)[C@@H](c3ccc(-c4ccc(F)cc4)cc3)[C@@H]2C1	2.7
Cc1ccccc1S(=O)(=O)N1CC(=O)N2[C@H](CO)[C@H](c3ccc(C#CCC4CCCC4)cc3)[C@H]2C1	-1.1
O=C(C1CCCCC1)N1CC(=O)N2[C@H](CO)[C@H](c3ccc(-c4ccccc4F)cc3)[C@@H]2C1	0.5
CCCc1cn([C@H]2C[C@@H]3O[C@H](CO)CC[C@@H]3O[C@@H]2CCc2ccc(-c3cccc(OC)c3)cc2)nn1	-2.5

Quoted from the listing.
In MLL AF4-AF9 inh, CN1C(=O)c2cc(NC(=O)c3cccs3)ccc2OC[C@@H]2O[C@@H](CC(=O)NCC(F)(F)F)CC[C@H]21 shows 0.0
In MLL AF4-AF9 inh, C[C@@H]1CN([C@H](C)CO)C(=O)Cc2cc(NC(=O)CCCN(C)C)ccc2O[C@H]1CN(C)CC1CCCCC1 shows 8.6

Only part of the results is shown (hit frequency here may not be typical).
